GLA inh pH 4.5: qHTS Assay for Inhibitors of Human alpha-Galactosidase at pH 4.5; 230,000 tested, under 10 active; activity change, negative = inhibition, % at 105 µM; purified enzyme, 4-MU-alpha-Gal fluorescence, pH 4.5; AID 1467, 2008; inconclusive = small, poorly fitted or top-dose-only inhibition, or a rising curve; inactive = flat fitted curve, though single readings scatter; no compound was filed as active;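 also: 0% = full activity with enzyme and -100% = basal without enzyme; dose as in the result columns while the protocol names 77 µM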
miR-21 FLuc: qHTS Assay for Modulators of miRNAs and/orActivators of miR-21. HeLa miR-21 FLuc reporter, luciferase, 48 h. 340,000 tested, under 10 active. AID 2288, 2010. Potency, µM (highest dose often 38.3 µM), for inactives: top-dose reporter change, positive = more light; active = well fitted rising curve with a large enough effect; inconclusive = small, poorly fitted or top-dose-only effect; inactive = no such curve, though single readings can be large or run the other way;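 also: % of control where 0% means no effect; miR-21 action dims this reporter so a rising signal means less miR-21 action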
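Luminescence from a firefly luciferase reporter carrying a miR-21 binding site downstream, stably expressed under a CMV promoter in HeLa cells that make miR-21 endogenously, reports miRNA modulation after 48 h compound exposure up to approximately 40uM final.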
Rango-impB inh: qHTS Assay for Inhibitors of Rango (Ran-regulated importin-beta cargo) - Importin beta complex formation; 340,000 tested, 0.031% active; AID 540263, 2011; Importin subunit beta-1 (Homo sapiens), Q14974; Potency, µM (doses to about 92.2 µM), for inactives: at the top dose inhibition of complex formation; Rango CFP/YFP FRET sensor + importin beta, 45 min; active = rising FRET ratio curve, often small or poorly fitted; inconclusive = mostly compound fluorescence or quenching in the first reads; inactive = flat curves in all reads;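 also: potency is read from the fitted curve at half-maximal effect; 0% = DMSO wells and 100% = buffer wells lacking importin beta; nearly all actives have a fitted effect of over 15% in size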
Target sequence (Q14974 whole entry, looked up): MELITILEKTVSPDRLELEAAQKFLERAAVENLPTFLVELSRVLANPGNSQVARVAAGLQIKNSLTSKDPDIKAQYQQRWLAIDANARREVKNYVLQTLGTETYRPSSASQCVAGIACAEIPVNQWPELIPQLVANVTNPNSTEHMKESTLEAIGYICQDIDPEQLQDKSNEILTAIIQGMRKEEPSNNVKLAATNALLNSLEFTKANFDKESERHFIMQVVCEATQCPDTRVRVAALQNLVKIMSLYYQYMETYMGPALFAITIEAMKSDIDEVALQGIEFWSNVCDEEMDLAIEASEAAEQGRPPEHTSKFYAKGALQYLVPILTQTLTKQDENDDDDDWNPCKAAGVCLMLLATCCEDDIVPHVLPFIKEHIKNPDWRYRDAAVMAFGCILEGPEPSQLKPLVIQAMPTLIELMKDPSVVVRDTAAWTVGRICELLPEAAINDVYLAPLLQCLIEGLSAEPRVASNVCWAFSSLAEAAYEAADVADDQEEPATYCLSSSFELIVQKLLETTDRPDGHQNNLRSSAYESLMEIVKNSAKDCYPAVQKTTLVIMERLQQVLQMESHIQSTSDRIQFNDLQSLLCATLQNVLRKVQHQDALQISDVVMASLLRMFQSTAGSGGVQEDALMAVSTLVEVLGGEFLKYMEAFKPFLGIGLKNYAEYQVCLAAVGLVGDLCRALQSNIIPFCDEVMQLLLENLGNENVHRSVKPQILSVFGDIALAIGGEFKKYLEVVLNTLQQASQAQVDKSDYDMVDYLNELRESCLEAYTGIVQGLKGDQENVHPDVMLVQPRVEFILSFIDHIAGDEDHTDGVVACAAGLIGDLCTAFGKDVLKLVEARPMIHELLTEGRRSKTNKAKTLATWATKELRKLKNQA
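Inhibition scored from the CFP 486 nm/YFP 530 nm FRET ratio 45 min after adding 0.125 microM importin beta to 50 nM Rango biosensor preincubated 5 min with compound (room temperature, PBS with DTT, Tween-20, BSA). No-importin wells as positive control.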
Rango dissoc inh: qHTS Assay for Inhibitors of RanGTP induced Rango (Ran-regulated importin-beta cargo) - Importin beta complex dissociation. Biochemical FRET Rango-importin beta, RanGTP-induced dissociation. Potency, µM (doses to about 46.1 µM), for inactives: top-dose activity change, negative = inhibition. 340,000 tested, 0.071% active; active means falling FRET ratio curve, often poorly fitted, with flat reads before Ran was added; inconclusive means other falling curves, or compound fluorescence or quenching; inactive means flat or rising ratio curve;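 also: potency is read from the fitted curve at half-maximal effect; % of control where 0% means no effect; nearly all actives have a fitted effect of over 45% in size; -100% = wells without RanGTP and RCC1; the record marks most hits as doubtful in a second field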
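Rango (0.1 uM)–importin beta (0.25 uM) complex; RanGTP-RCC1 trigger; 45 min RT; CFP/YFP FRET read.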
* = called active by the depositor. Not all compounds are listed. The share of hits here may be higher or lower than overall.

What do the screens show for `CCn1c(CC(=O)Nc2ccc(C)cc2)nnc1SCC(=O)N1CCOCC1`?
miR-21 FLuc: 0%; Rango-impB inh: -2.4%; Rango dissoc inh: 3%

How did CCCOC(=O)C1=C(C)NC2=C(C(=O)CCC2)C1c1ccc(N(C)C)cc1 (stereo unspecified) do in these assays?
GLA inh pH 4.5: 2; miR-21 FLuc: -8%; Rango-impB inh: -1.8%; Rango dissoc inh: -10%

How did NC(=O)CSCc1cccc(Br)c1 do in these assays?
GLA inh pH 4.5: 0; miR-21 FLuc: -17%; Rango-impB inh: 5.2%; Rango dissoc inh: 0%

How did Cc1cc(NC(=O)CCC(=O)N(CC(=O)NC2CCCC2)Cc2ccc3c(c2)OCO3)no1 do in these assays?
GLA inh pH 4.5: -19; miR-21 FLuc: 0%; Rango-impB inh: 3.4%; Rango dissoc inh: 6%

How did CCC(C)Sc1nnc(CSc2nc(C)cc(C)n2)n1C (stereo unspecified) do in these assays?
GLA inh pH 4.5: 3; miR-21 FLuc: 0%; Rango-impB inh: -2.7%; Rango dissoc inh: -19%

How did C[C@]12c3[nH]c4ccc(Cl)cc4c3CCN1C(=O)[C@@H](CC(=O)NCCC1=CCCCC1)C[C@@H]2C(=O)N1CCCCC1 do in these assays?
Rango-impB inh: 0.2%; Rango dissoc inh: 17%

What do the screens show for `CCOCCCNC(=O)C1(O)c2cc(Br)ccc2NC(=O)N1c1ccc(C)c(C)c1` (stereo unspecified)?
miR-21 FLuc: 0%; Rango-impB inh: -0.2%; Rango dissoc inh: 11%

Results for Cc1cccc(C(=O)N2CCN(S(=O)(=O)c3ccc4c(c3)OCCCO4)CC2)c1[N+](=O)[O-] ?
miR-21 FLuc: -1%; Rango-impB inh: -0.3%; Rango dissoc inh: 3%

How did O=C(NCCN1C(=O)S/C(=C/c2cccnc2)C1=O)c1cccs1 do in these assays?
Rango-impB inh: inconclusive; Rango dissoc inh: -14%

What do the screens show for `Cc1nc2ccc(NC(=O)N(C(C)C)C(C)C)cc2s1`?
GLA inh pH 4.5: 3; miR-21 FLuc: -30%; Rango-impB inh: inconclusive; Rango dissoc inh: 1%

Results for CNC(=S)Nc1ccc(N2CCN(c3ccc(C(F)(F)F)cn3)CC2)nc1 ?
GLA inh pH 4.5: -5; miR-21 FLuc: 4%; Rango-impB inh: 5.9%; Rango dissoc inh: 2%

How did CN(C(=O)c1cccc(NC(=O)Cc2cccc(NC(=O)C3CCCN(C(=O)C4CCCC4)C3)c2)c1)C1CCC1 (stereo unspecified) do in these assays?
Rango-impB inh: 0.6%; Rango dissoc inh: -2%

What do the screens show for `Cc1nn(-c2ccccc2)c(C)c1C(=O)NCCc1ccccc1`?
miR-21 FLuc: -58%; Rango-impB inh: 1.8%; Rango dissoc inh: -1%

What do the screens show for `CCCOc1ccc(CNC(=O)CCC(=O)n2ncc3cc(C)ccc32)cc1`?
miR-21 FLuc: 0%; Rango-impB inh: 0.9%; Rango dissoc inh: 2%

Results for COc1ccc(CC(=O)N2CCN(C(=O)Cc3ccc(OC)cc3)CC2)cc1 ?
GLA inh pH 4.5: -1; miR-21 FLuc: -1%; Rango-impB inh: 4.4%; Rango dissoc inh: 0%

What do the screens show for `COc1ccc(CN(C)C(=O)c2ccc3ccccc3n2)cc1F`?
miR-21 FLuc: -35%; Rango-impB inh: -2.5%; Rango dissoc inh: 7%

What do the screens show for `CCOc1ccc(N2C(=O)CC(Sc3nc(C)cc(C)n3)C2=O)cc1` (stereo unspecified)?
GLA inh pH 4.5: -1; miR-21 FLuc: -2%; Rango-impB inh: 3.5%; Rango dissoc inh: 5%

What do the screens show for `CCOc1ccc(NC(=O)CSc2ccccc2N)cc1`?
GLA inh pH 4.5: -5; miR-21 FLuc: -8%; Rango-impB inh: 0.7%; Rango dissoc inh: 0%

Results for O=C(N/N=C/c1ccc(OCC(=O)N2CCOCC2)cc1)c1ccccc1Cl ?
GLA inh pH 4.5: 5; miR-21 FLuc: 2%; Rango-impB inh: -3.1%; Rango dissoc inh: 7%

How did CCCCCCCSc1nnc(-c2ccccc2N)c(=O)[nH]1 do in these assays?
GLA inh pH 4.5: 1; miR-21 FLuc: -1%; Rango-impB inh: -0.6%; Rango dissoc inh: 11%

Ordered by heavy-atom count (lowest first): part of the list above
What do the screens show for `Cc1nc2ccc(NC(=O)N(C(C)C)C(C)C)cc2s1`?
GLA inh pH 4.5: 3; miR-21 FLuc: -30%; Rango-impB inh: inconclusive; Rango dissoc inh: 1%

What do the screens show for `COc1ccc(CN(C)C(=O)c2ccc3ccccc3n2)cc1F`?
miR-21 FLuc: -35%; Rango-impB inh: -2.5%; Rango dissoc inh: 7%

What do the screens show for `CCOc1ccc(N2C(=O)CC(Sc3nc(C)cc(C)n3)C2=O)cc1` (stereo unspecified)?
GLA inh pH 4.5: -1; miR-21 FLuc: -2%; Rango-impB inh: 3.5%; Rango dissoc inh: 5%

Results for CNC(=S)Nc1ccc(N2CCN(c3ccc(C(F)(F)F)cn3)CC2)nc1 ?
GLA inh pH 4.5: -5; miR-21 FLuc: 4%; Rango-impB inh: 5.9%; Rango dissoc inh: 2%

What do the screens show for `CCCOc1ccc(CNC(=O)CCC(=O)n2ncc3cc(C)ccc32)cc1`?
miR-21 FLuc: 0%; Rango-impB inh: 0.9%; Rango dissoc inh: 2%

Carrying on.
What do the screens show for `CC(OC(=O)c1cc2ccccc2o1)C(=O)Nc1ccc(N2CCOCC2)cc1` (stereo unspecified)?
Rango-impB inh: -1.2%; Rango dissoc inh: -11%

How did NC(=O)c1snnc1-c1ccccc1 do in these assays?
GLA inh pH 4.5: -2; miR-21 FLuc: 0%; Rango-impB inh: -2.7%; Rango dissoc inh: 5%

How did Cc1cccc(OCC(=O)NCC(=O)N/N=C/c2ccc(N(C)C)cc2)c1 do in these assays?
miR-21 FLuc: -9%; Rango-impB inh: -2.1%; Rango dissoc inh: -9%

Results for CCOC(=O)Cc1c[nH]c2ccccc12 ?
GLA inh pH 4.5: -3; miR-21 FLuc: -5%; Rango-impB inh: -3.1%; Rango dissoc inh: -13%

Results for CCOC(=O)c1c(-c2ccccc2)csc1NC(=O)c1cc(S(=O)(=O)N2CCOCC2)ccc1C ?
GLA inh pH 4.5: -5; miR-21 FLuc: -4%; Rango-impB inh: 3.2%; Rango dissoc inh: 5%

How did COc1ccc(N2CCN(CCCNC(=O)c3ccc(CS(=O)(=O)c4ccc(Cl)cc4)o3)CC2)cc1 do in these assays?
miR-21 FLuc: 19%; Rango-impB inh: 1.2%; Rango dissoc inh: 4%

How did CCCS(=O)(=O)N1CCCC(C(=O)NCCCOCC)C1 (stereo unspecified) do in these assays?
GLA inh pH 4.5: 4; miR-21 FLuc: 1%; Rango-impB inh: 1.3%; Rango dissoc inh: 4%

What do the screens show for `Cc1ccc(-n2c(=O)c3c(n4cnnc24)-c2ccccc2CC32CCCCC2)cc1`?
GLA inh pH 4.5: 3; miR-21 FLuc: -5%; Rango-impB inh: 0.4%; Rango dissoc inh: 0%

How did COc1cscc1C(N)=O do in these assays?
GLA inh pH 4.5: -8; miR-21 FLuc: -2%; Rango-impB inh: -0.8%; Rango dissoc inh: -8%

Results for CCOC(=O)CCc1c(C)nc2cc(C3CCCN(C(=O)OC(C)(C)C)C3)[nH]n2c1=O (stereo unspecified) ?
GLA inh pH 4.5: -6; miR-21 FLuc: 0%; Rango-impB inh: 3.4%; Rango dissoc inh: -14%

How did NC(=O)C1CN(S(=O)(=O)c2ccc(Cl)cc2F)c2ccccc2O1 (stereo unspecified) do in these assays?
miR-21 FLuc: 3%; Rango-impB inh: 3.4%; Rango dissoc inh: -2%

What do the screens show for `Cc1cccnc1NC1(C(F)(F)F)N=C(c2ccccc2)NC1=O` (stereo unspecified)?
GLA inh pH 4.5: -10; miR-21 FLuc: 3%; Rango-impB inh: -1.6%; Rango dissoc inh: 0%

Results for CCC(C)NS(=O)(=O)c1ccc(S(=O)(=O)N(CCc2ccc(OC)c(OC)c2)Cc2cccs2)cc1 (stereo unspecified) ?
GLA inh pH 4.5: -28; miR-21 FLuc: 19%; Rango-impB inh: -0.4%; Rango dissoc inh: 11%

What do the screens show for `CSc1ncccc1C(=O)OCc1ccccc1`?
GLA inh pH 4.5: 2; miR-21 FLuc: -46%; Rango-impB inh: -0.2%; Rango dissoc inh: 1%

Results for COc1ccc(-c2cn3cc(Cl)ccc3n2)cc1OC ?
GLA inh pH 4.5: -1; miR-21 FLuc: -76%; Rango-impB inh: 2.6%; Rango dissoc inh: 5%

How did O=C(O)c1ccc(CSCc2c(F)cccc2Cl)o1 do in these assays?
GLA inh pH 4.5: 3; miR-21 FLuc: -12%; Rango-impB inh: -0.8%; Rango dissoc inh: -17%

What do the screens show for `CCN1CCN(c2ccc(S(=O)(=O)N3CCOCC3)cc2NC(=O)C2CCC(C(C)(C)C)CC2)CC1` (stereo unspecified)?
Rango-impB inh: -5.8%; Rango dissoc inh: 57%

Results for CCN(C(=O)c1sc(N)c(C#N)c1C)C1CCCCC1 ?
GLA inh pH 4.5: 6; miR-21 FLuc: -2%; Rango-impB inh: 2.6%; Rango dissoc inh: 3%

What do the screens show for `O=C1Cc2ccccc2C(c2ccc(Cl)cc2)N1` (stereo unspecified)?
GLA inh pH 4.5: -22; miR-21 FLuc: 0%; Rango-impB inh: 0.2%; Rango dissoc inh: -6%

What do the screens show for `CCc1nc2ccc(C(=O)Nc3ccc4c(c3)OCO4)cc2nc1CC`?
GLA inh pH 4.5: 1; miR-21 FLuc: -41%; Rango-impB inh: -4.6%; Rango dissoc inh: -3%

How did CN(C)Cc1c(O)ccc2c1O/C(=C\C=C\c1ccccc1)C2=O do in these assays?
GLA inh pH 4.5: -29; miR-21 FLuc: -5%; Rango-impB inh: inconclusive; Rango dissoc inh: inconclusive

What do the screens show for `CCCN1CCC(=O)N([C@H](CO)CC(C)C)CC1`?
miR-21 FLuc: 0%; Rango-impB inh: 2.7%; Rango dissoc inh: -5%

What do the screens show for `CCN(CC)S(=O)(=O)c1cc(NC(=O)CNc2cccc(S(=O)(=O)N3CCCC3)c2)ccc1C`?
Rango-impB inh: 1.1%; Rango dissoc inh: 1%

How did COc1c([N+](=O)[O-])c(=O)oc2ccccc12 do in these assays?
GLA inh pH 4.5: -4; miR-21 FLuc: -2%; Rango-impB inh: 0.4%; Rango dissoc inh: 0%

What do the screens show for `COc1ccc(NS(=O)(=O)c2cc(NC(=O)COc3ccccc3F)ccc2OC)cc1`?
Rango-impB inh: -5.3%; Rango dissoc inh: 2%

What do the screens show for `Cc1ccc(N2C(=O)N(CC(=O)N3CCOCC3)C(=O)C2C)cc1` (stereo unspecified)?
GLA inh pH 4.5: 7; miR-21 FLuc: -8%; Rango-impB inh: 4.1%; Rango dissoc inh: 3%

What do the screens show for `S=c1[nH]nc(-c2cc(-c3ccccc3)n[nH]2)n1/N=C/c1ccccc1`?
GLA inh pH 4.5: 0; miR-21 FLuc: -22%; Rango-impB inh: 4.1%; Rango dissoc inh: 6%

Results for CCc1nnc(SCc2ccc(OC)c(Br)c2)n1N ?
GLA inh pH 4.5: 7; miR-21 FLuc: -1%; Rango-impB inh: 5.0%; Rango dissoc inh: -10%

Results for O=[N+]([O-])c1cc(/C=N\O)ccc1Oc1ccc(F)cc1 ?
GLA inh pH 4.5: -6; miR-21 FLuc: -72%; Rango-impB inh: 1.4%; Rango dissoc inh: 22%

What do the screens show for `Cc1cc(Nc2cccc(F)c2)nc(NCc2ccccc2)n1`?
GLA inh pH 4.5: -5; miR-21 FLuc: 24%; Rango-impB inh: -1.4%; Rango dissoc inh: -5%

Results for CSc1cccc(NC(=O)C2CCCN(S(=O)(=O)c3cccs3)C2)c1 (stereo unspecified) ?
miR-21 FLuc: 21%; Rango-impB inh: 0.2%; Rango dissoc inh: 3%

What do the screens show for `Cc1[nH]c2ccccc2c1/C=C/c1nc2ccccc2c(=O)n1CCO`?
GLA inh pH 4.5: 2; miR-21 FLuc: 5%; Rango-impB inh: inconclusive; Rango dissoc inh: inconclusive

Assay outcomes: PubChem BioAssay, National Center for Advancing Translational Sciences (NCATS)
